Screening data deposited in PubChem BioAssay by Broad Institute.
DUX4 txn inh = inhibitors of DUX4-driven ZSCAN4 reporter expression, primary screen, 293T cells, Gaussia and Italica luciferase. AID 1224904, 2016. activity change, negative = inhibition, % (test concentration not listed). 37,000 compounds, 0.8% hits. 293T-iDUX4 ZSCAN4-Gaussia luciferase reporter, 24 h; active compounds read low;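 active means -10% or lower and over 25 points stronger than a control reporter; inconclusive means -10% or lower with a smaller gap; inactive means above -10%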;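 further: 0% = median of neutral control wells and -100% = median of positive control wells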
DUX4 txn inh difference = also measured in DUX4 txn inh; calls as there; Gaussia minus Italica difference, %; measured here: selective DUX4 reporter inhibition;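 worked out from the two reporters; negative = selective loss of the DUX4 reporter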
DUX4 txn inh control = also measured in DUX4 txn inh; calls as there; activity change, negative = inhibition, %; measured here: Italica tet-on control reporter;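 0 = neutral control and -100 = positive control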
The depositor's hits bear a star; ? = inconclusive; nt = not tested or not shown.

DUX4 txn inh,DUX4 txn inh difference,DUX4 txn inh control,structure
-2,-1,-1.6,C[C@H]1CN([C@@H](C)CO)C(=O)CCCn2cc(nn2)CO[C@H]1CN(C)C(=O)Nc1ccc(-c2cccs2)cc1
8,8,0.5,O=C1CNC[C@H]2[C@@H](c3ccc(-c4ccccc4F)cc3)[C@H](CO)N12
1,-4,5.1,C[C@H]1CN([C@@H](C)CO)C(=O)c2cc(C#CC(C)(C)O)cnc2O[C@H]1CN(C)Cc1ccccn1
-2,-2,0.6,N#C[C@@H]1[C@@H](c2ccc(C3=CCCC3)cc2)[C@H](CO)N1C(=O)C1CCC1
2,0,2.8,CO[C@@H]1CN(C)C(=O)c2ccc(NS(=O)(=O)c3ccccc3C)cc2OC[C@@H](C)N(C)C[C@@H]1C
6,3,3.0,CO[C@@H]1CN(C)C(=O)c2ccc(NC(=O)c3cc(C)on3)cc2OC[C@@H](C)N(CC2CC2)C[C@H]1C
-3,-2,-1.0,C[C@@H]1CN([C@H](C)CO)C(=O)c2cc(-c3ccncc3)cnc2O[C@H]1CN(C)C(=O)CN1CCOCC1
0,-6,6.8,CC(C)OC(=O)N(C)C[C@@H]1OCc2ccccc2-c2ccccc2C(=O)N([C@@H](C)CO)C[C@H]1C
-3,-6,2.3,C[C@@H]1CCCCO[C@@H](CN(C)C(=O)c2ccccc2)[C@H](C)CN([C@@H](C)CO)C(=O)c2cc(NC(=O)C3CCCCC3)ccc2O1
-6,-2,-4.0,CCC(=O)N1[C@H](CO)[C@H](c2ccccc2)[C@H]1CN(C)C(=O)c1ccccc1F
?,nt,nt,C[C@@H]1CCCCO[C@@H](CN(C)CC2CCCCC2)[C@H](C)CN([C@H](C)CO)C(=O)c2cc(NC(=O)C3CCCCC3)ccc2O1
13,5,7.5,COC(=O)C[C@@H]1C[C@@H]2c3cc(NC(=O)NC4CCCCC4)ccc3O[C@@H]2[C@@H](CO)O1
?,nt,nt,O=C(C[C@@H]1C[C@@H]2c3cc(NC(=O)C4CCOCC4)ccc3O[C@@H]2[C@@H](CO)O1)NCc1ccc(Oc2ccccc2)cc1
?,nt,nt,O=C(NC1CCC1)[C@@H]1[C@@H](CO)[C@@H]2Cn3c(cccc3=O)[C@@H]2N1CCc1ccccc1
?,nt,nt,N#Cc1cccc(-c2ccc3c(c2)[C@@H]2[C@@H](CCN2S(=O)(=O)c2ccc(F)cc2)[C@H](CO)N3)c1
-1,-6,4.3,C[C@@H]1CCCCO[C@H](CN(C)S(=O)(=O)c2cn(C)cn2)[C@H](C)CN([C@@H](C)CO)C(=O)c2cc(N(C)C)ccc2O1
?,nt,nt,COc1ccc(-c2ccc3c(c2)[C@H]2[C@H](CCN2S(=O)(=O)c2ccccc2C)[C@H](CO)N3C)cc1
-6,1,-6.2,CN1[C@@H]2c3ccc(-c4ccccc4)c(=O)n3C[C@@H]2[C@@H](CO)[C@@H]1C(=O)N1CCc2ccccc2C1
4,5,-1.0,COc1ccc(C(=O)Nc2ccc3c(c2)OC[C@H](C)NC[C@@H](C)[C@@H](OC)CN(C)C3=O)cc1
8,-4,12,O=C(c1ccccc1F)N1CC(=O)N2[C@H](CO)[C@H](c3ccc(C#Cc4ccccc4)cc3)[C@@H]2C1
-1,1,-1.8,CCCN1[C@@H]2c3ccc(C4=CCCC4)c(=O)n3C[C@@H]2[C@@H](CO)[C@@H]1C(=O)NCCCN(C)C
0,5,-4.6,CCS(=O)(=O)N(C)C[C@H]1[C@@H](c2ccccc2)[C@@H](CO)N1C(=O)CN(C)C
12,3,9.1,CN1c2ccc(-c3ccccc3F)cc2[C@@H]2[C@@H](CCN2S(=O)(=O)c2ccccc2)[C@@H]1CO
3,-2,5.1,CO[C@@H](CN(C)Cc1cc(F)ccc1F)[C@H](C)CN([C@H](C)CO)S(=O)(=O)c1ccc(C)cc1
-7,-1,-5.7,CO[C@@H]1CN(C)C(=O)c2cc(NC(=O)C3CCCCC3)ccc2OC[C@H](C)N(C)C[C@H]1C
-3,0,-2.8,CCNC[C@@H]1[C@@H](c2ccc(C#Cc3ccccn3)cc2)[C@@H](CO)N1C(=O)C1CC1
-5,-7,1.4,COc1ccc(C#Cc2ccc([C@H]3[C@@H](CO)N4C(=O)CN(C(=O)NC(C)C)C[C@@H]34)cc2)cc1
-1,-13,11,COc1ccc2c3c([nH]c2c1)[C@H](CO)NCC31CCN(C(=O)c2ccccc2)CC1
0,1,-1.0,COCC(=O)N1C[C@H]2[C@@H](c3ccccc31)[C@@H](CO)N2Cc1ccccc1Cl
-1,0,-0.5,O=C(C[C@@H]1CC[C@H](NS(=O)(=O)c2ccc(F)cc2)[C@@H](CO)O1)N1CCN(c2ccccc2)CC1
6,2,4.1,CN(C)c1ccc2c(c1)[C@@H]1C[C@H](CC(=O)NCCN3CCCCC3)O[C@@H](CO)[C@@H]1O2
-2,-1,-0.8,CNC[C@@H]1Oc2ccc(NC(=O)NC3CCCCC3)cc2CC(=O)N([C@H](C)CO)C[C@H]1C
0,3,-2.9,CN(C)C(=O)C[C@H]1CC[C@@H]2[C@H](COC[C@H](O)CN2C(=O)c2ccncc2)O1
0,3,-2.8,C[C@@H]1CN([C@H](C)CO)C(=O)c2cc(NC(=O)CCC(F)(F)F)ccc2O[C@@H](C)CCCCO[C@H]1CN(C)C(=O)NC1CCCCC1
6,-7,12,CC(C)[C@H](C)NC(=O)N(C)C[C@H]1OCc2ccccc2-c2ccccc2C(=O)N([C@H](C)CO)C[C@H]1C
-3,-9,6.3,CN(C)CC(=O)N1[C@@H]2Cn3c(cccc3=O)[C@H]1[C@@H](C(=O)NCc1ccccc1)[C@@H]2CO
8,5,3.1,CN(C)C(=O)c1cccc(-c2ccc3c(c2)[C@@H]2[C@@H](CCN2C(=O)Cc2ccncc2)[C@@H](CO)N3)c1
6,1,4.7,CCCNC(=O)N1C[C@@H](O)COC[C@H]2O[C@@H](CC(=O)NCc3ccncn3)CC[C@@H]21
1,-4,4.9,C[C@@H]1CN([C@@H](C)CO)C(=O)c2cc(NC(=O)C3CC3)ccc2O[C@@H]1CN(C)S(=O)(=O)c1ccccc1
-1,4,-5.4,COCCNC(=O)C[C@H]1CC[C@H]2[C@@H](COC[C@H](O)CN2Cc2ccc(Cl)c(Cl)c2)O1

Sorted by molar mass (lowest first): part of the list above.
DUX4 txn inh,DUX4 txn inh difference,DUX4 txn inh control,structure
0,3,-2.9,CN(C)C(=O)C[C@H]1CC[C@@H]2[C@H](COC[C@H](O)CN2C(=O)c2ccncc2)O1
0,1,-1.0,COCC(=O)N1C[C@H]2[C@@H](c3ccccc31)[C@@H](CO)N2Cc1ccccc1Cl
-1,-13,11,COc1ccc2c3c([nH]c2c1)[C@H](CO)NCC31CCN(C(=O)c2ccccc2)CC1
6,2,4.1,CN(C)c1ccc2c(c1)[C@@H]1C[C@H](CC(=O)NCCN3CCCCC3)O[C@@H](CO)[C@@H]1O2
6,1,4.7,CCCNC(=O)N1C[C@@H](O)COC[C@H]2O[C@@H](CC(=O)NCc3ccncn3)CC[C@@H]21
-3,-9,6.3,CN(C)CC(=O)N1[C@@H]2Cn3c(cccc3=O)[C@H]1[C@@H](C(=O)NCc1ccccc1)[C@@H]2CO
-5,-7,1.4,COc1ccc(C#Cc2ccc([C@H]3[C@@H](CO)N4C(=O)CN(C(=O)NC(C)C)C[C@@H]34)cc2)cc1
-1,4,-5.4,COCCNC(=O)C[C@H]1CC[C@H]2[C@@H](COC[C@H](O)CN2Cc2ccc(Cl)c(Cl)c2)O1
6,-7,12,CC(C)[C@H](C)NC(=O)N(C)C[C@H]1OCc2ccccc2-c2ccccc2C(=O)N([C@H](C)CO)C[C@H]1C
1,-4,4.9,C[C@@H]1CN([C@@H](C)CO)C(=O)c2cc(NC(=O)C3CC3)ccc2O[C@@H]1CN(C)S(=O)(=O)c1ccccc1
0,3,-2.8,C[C@@H]1CN([C@H](C)CO)C(=O)c2cc(NC(=O)CCC(F)(F)F)ccc2O[C@@H](C)CCCCO[C@H]1CN(C)C(=O)NC1CCCCC1

The list goes on.
DUX4 txn inh,DUX4 txn inh difference,DUX4 txn inh control,structure
6,4,1.8,CCCNC(=O)N1C[C@@H](C)[C@H](OC)CN(C)C(=O)c2ccc(NC(=O)C3CCC3)cc2OC[C@H]1C
1,0,1.5,C[C@@H]1CN([C@@H](C)CO)C(=O)c2cc(NC(=O)Nc3ccc(C(F)(F)F)cc3)ccc2O[C@@H](C)CCCCO[C@H]1CN(C)S(=O)(=O)c1cn(C)cn1
1,3,-2.1,CCNC(=O)[C@H]1[C@H](CO)[C@H]2Cn3c(ccc(-c4ccccc4F)c3=O)[C@H]2N1CC
8,2,6.1,CO[C@H]1CN(C)C(=O)c2ccc(NS(=O)(=O)c3c(C)noc3C)cc2OC[C@H](C)NC[C@@H]1C
-2,-1,-0.8,CO[C@@H]1CC[C@H]2CCOc3c(C#N)cccc3C(=O)N(C)C[C@@H](c3ccccc3)CC(=O)N(C)C[C@H]1O2
3,6,-2.8,OC[C@H]1[C@H]2c3ccccc3NC[C@H]2N1CC1CCCCC1
-1,-6,4.9,COc1ccc2c3c([nH]c2c1)[C@H](CO)N(C(=O)CC1CC1)CC31CCN(C(=O)c2ccccc2)CC1
-7,-2,-5.8,COCC(=O)N1CC(=O)N2[C@H](CO)[C@@H](c3ccc(C#Cc4cccc(OC)c4)cc3)[C@@H]2C1
?,nt,nt,O=C(c1ccccc1F)N1CC(=O)N2[C@H](C1)[C@H](c1ccc(C#Cc3ccccc3)cc1)[C@@H]2CO
-2,2,-3.3,Cc1noc(C)c1NC(=O)N(C)C[C@H]1OCCCC[C@@H](C)Oc2ccc(NS(=O)(=O)c3cn(C)cn3)cc2C(=O)N([C@H](C)CO)C[C@H]1C
0,-5,5.2,CC=Cc1ccc2n(c1=O)C[C@@H]1[C@@H](CO)[C@H](C(=O)NCc3ccccc3F)N(S(C)(=O)=O)[C@H]21 (mixture of isomers)
-2,1,-3.0,CN1[C@@H]2Cn3c(ccc(-c4ccccc4)c3=O)[C@H]1[C@@H](C(=O)NCC1CCCCC1)[C@@H]2CO
1,-3,3.6,Cc1ccc(S(=O)(=O)Nc2ccc3c(c2)C(=O)N(C)[C@@H]2CC[C@H](CC(=O)NCCc4ccncc4)O[C@@H]2CO3)cc1
-2,0,-2.8,Cc1noc(C)c1NC(=O)N(C)C[C@H]1Oc2ccc(N(C)C)cc2CC(=O)N([C@@H](C)CO)C[C@H]1C
0,2,-1.9,CNC[C@@H]1OCCCC[C@H](C)Oc2ccc(NS(=O)(=O)c3c(C)noc3C)cc2C(=O)N([C@@H](C)CO)C[C@@H]1C
2,2,0.0,CCCNC(=O)N1[C@@H](CO)[C@@H](c2ccccc2)C12CN(C(=O)CC)C2
-5,-2,-2.7,O=C(c1ccccn1)N1CC(=O)N2[C@H](CO)[C@@H](c3ccc(C#CC4CCCC4)cc3)[C@H]2C1
2,4,-2.3,COCC#Cc1cnc2c(c1)C(=O)N([C@H](C)CO)C[C@H](C)[C@@H](CN(C)C(=O)c1ccc3c(c1)OCO3)O2
2,-3,5.3,CNC[C@H]1Oc2ccc(NC(=O)Cn3cnnn3)cc2C(=O)N([C@@H](C)CO)C[C@H]1C
0,-3,3.3,C[C@H](CO)N1C[C@H](C)[C@@H](CN(C)C(=O)c2cnccn2)Oc2cc(C#CCC3CCCC3)ccc2S1(=O)=O
-1,-2,0.9,CN(C)CC(=O)N1[C@H](CO)[C@@H](c2ccc(-c3ccccc3F)cc2)[C@@H]1C#N
13,5,8.8,COc1cccc(-c2ccc([C@@H]3[C@H]4CN(Cc5cncnc5)CCCCN4[C@H]3CO)cc2)c1
11,7,4.0,COC(=O)N(C)C[C@H]1OCc2ccccc2-c2c(n(C)c3ccccc23)C(=O)N([C@H](C)CO)C[C@@H]1C
18,17,0.5,CO[C@H]1CN(C)C(=O)c2cc(NC(=O)NC(C)C)ccc2OC[C@@H](C)N(C(=O)CN(C)C)C[C@H]1C
?,nt,nt,COc1cccc(S(=O)(=O)Nc2ccc3c(c2)[C@H]2C[C@H](CC(=O)NC4CCCCC4)O[C@H](CO)[C@H]2O3)c1
-2,1,-2.9,CO[C@H]1CN(C)C(=O)c2ccc(NS(=O)(=O)c3ccc(C)cc3)cc2OC[C@@H](C)N(Cc2nccs2)C[C@H]1C
-2,0,-1.7,CO[C@H]1CC[C@@H]2CCOc3c(C#N)cccc3C(=O)N(C)[C@H](C)C(=O)N(C)C[C@@H]1O2
4,11,-7.3,C[C@H](NC(=O)C[C@@H]1C[C@H]2c3cc(NS(=O)(=O)c4ccc(F)cc4)ccc3O[C@H]2[C@@H](CO)O1)c1ccccc1
-6,-7,1.8,CO[C@@H]1CC[C@@H]2CCOc3c(C#N)cccc3C(=O)N(C)C[C@@H](c3ccccc3)CC(=O)N(C)C[C@@H]1O2
?,nt,nt,O=C(c1cccnc1)N1CCCCN2[C@H](C1)[C@H](c1ccc(C#Cc3cccnc3)cc1)[C@@H]2CO
9,7,1.8,O=C(NCC(F)(F)F)[C@H]1[C@H](CO)[C@H]2Cn3c(cccc3=O)[C@H]2N1CCC(F)(F)F
?,nt,nt,COc1ccccc1C#Cc1ccc([C@H]2[C@@H](CO)N3CCCCN(C(=O)C4CCC4)C[C@H]23)cc1
2,-1,2.3,CN1C(=O)c2cc(NC(=O)C3CCOCC3)ccc2OC[C@H]2O[C@@H](CC(=O)NC3CCCC3)CC[C@@H]21
?,nt,nt,C[C@H](CO)N1C[C@H](C)[C@@H](CN(C)S(=O)(=O)c2ccccc2F)Oc2ncc(/C=C/c3ccccc3)cc2C1=O

Some of the compounds tested (hit frequency here may not be typical).
